Screens deposited in PubChem by several laboratories.
CSC inhib: cancer stem cell viability inhibitors, primary screen, luminescence; cancer stem cell-like cells viability; inhibition, % at 7.5 µM; 300,000 compounds, 1.1% hits;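 active = mean at 75% or more and at least half the replicates too; inconclusive = mean and replicates disagree; tested in HMLE shEcad cells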;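 note: 0% = median of negative and 100% = median of positive control wells; the first replicate is given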
Rce1 inhib: yeast Rce1p protease inhibitors, primary screen, biochemical, fluorescence, cell-free homogeneous. CAAX prenyl protease 2 (Saccharomyces cerevisiae (strain ATCC 204508 / S288c)), Q03530. yeast membranes, quenched prenylated peptide cleavage fluorescence. calls only. 290,000 compounds, 0.27% hits;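 active = fall in fluorescence gain of 50% or more versus controls, with final raw signal at or below 3038400; inconclusive = same 50% fall but final raw signal above 3038400; inactive = fall in fluorescence gain under 50%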;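 note: plate controls were neutral control wells for no effect and wells lacking membranes for full effect; tested at 10 µM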
Target sequence (Q03530 whole entry, looked up): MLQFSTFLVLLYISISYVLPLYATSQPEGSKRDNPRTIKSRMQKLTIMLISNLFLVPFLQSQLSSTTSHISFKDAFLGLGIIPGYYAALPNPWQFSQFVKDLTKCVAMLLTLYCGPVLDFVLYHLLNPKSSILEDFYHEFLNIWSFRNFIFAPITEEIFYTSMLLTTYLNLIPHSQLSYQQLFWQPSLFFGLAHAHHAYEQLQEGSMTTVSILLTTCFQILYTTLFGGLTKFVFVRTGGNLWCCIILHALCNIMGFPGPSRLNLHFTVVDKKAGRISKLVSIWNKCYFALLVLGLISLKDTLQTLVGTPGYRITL
HIV Env fusion: inhibitors of HIV-1 Env-driven cell-cell fusion, primary screen, HeLa-JRFL effector, CEM21 target cells, luciferase; inhibition, % at 12.3 µM; 360,000 compounds, 1.1% hits; AID 651610, 2012;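 active = mean replicate inhibition score of at least 50 and every replicate individually at or above 50; inconclusive = only one of the two criteria met; inactive = mean below 50 and not all replicates reaching 50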;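 note: 0% = plate neutral controls and 100% = maraviroc near 300 nM; one replicate is shown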
MT1-MMP act inh: blockers of MT1-MMP proenzyme processing, primary screen, HT1080 RFP-PRO-GFP cells, GFP/RFP fluorescence; 360,000 compounds, 0.061% hits; GFP/RFP ratio change, % at 20 µM; GFP/RFP ratio fluorescence, overnight; percent of plate control window, DMSO zero; Matrix metalloproteinase-14 (Homo sapiens), P50281;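 active = GFP/RFP ratio change of at least 30% with cell ATP level not reduced by more than half and red fluorescence within 50% of control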; note: strong numbers were not always called active
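Test system: HT1080 cells expressing an RFP-PRO-GFP fluorescent reporter construct / Compound dosing: single-point 20 µM compound, 1% DMSO / Schedule: cells overnight before dosing, compound overnight, 37 °C, 5% CO2 / Evaluation: GFP/RFP fluorescence ratio / Control set: DMSO and RFP-L50D-GFP cell wells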
PABP FP inh: PABP poly(A) RNA binding inhibitors, primary screen, biochemical, fluorescence polarization, uHTS | Polyadenylate-binding protein 1 (Homo sapiens), P11940 | inhibition, % at 35 µM | 290,000 compounds, 1% hits | AID 2014, 2009;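 active = 50% or more with normal probe brightness, or confirmed in later tests; inconclusive = above 50% with abnormal brightness, or retests that disagree; inactive = below 50% or failed in later tests; about a fifth of its hits are not listed in these tables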;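 note: calls also rest on retests at 20 µM and on dose response follow-up; controls were probe without protein and protein plus probe with vehicle; some compounds called inactive have numbers as strong as hits; many hits fall short of the cut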
eIF4H inh: human eIF4H binding inhibitors, primary screen, translation initiation inhibitor project, biochemical, uHTS, fluorescence polarization; eIF4H fluorescence polarization binding assay; inhibition, % at 35 µM; 290,000 compounds, 0.94% hits; AID 2012, 2009;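 active = 50% or more with normal probe brightness, or confirmed in later tests; inconclusive = above 50% with abnormal brightness, or retests that disagree; inactive = below 50% or failed in later tests; about a fifth of its hits are not listed in these tables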;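 note: calls also rest on retests at 20 µM and on dose response follow-up; 0% = protein and probe with vehicle and 100% = probe without protein; strong numbers were not always called active; many hits fall short of the cut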
Yeast UUG start: modulators of yeast start codon fidelity, primary screen, whole organism, S. cerevisiae, single point, plate reader | 350,000 compounds, 0.13% hits | activity score, % at 18.7 µM | AID 602363, 2012 | S. cerevisiae UUG-firefly luciferase reporter, luminescence/redox ratio;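 active = replicate mean at a twofold rise or more, about +100% in these data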;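 note: firefly luciferase made from a UUG start codon reports start codon fidelity; reporter light over untreated wells divided by growth signal over untreated wells; some hits fall short of that in this replicate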
MT1-MMP act inh RFP: recorded beside MT1-MMP act inh, whose call it bears; RFP signal change, %; measured here: RFP expression control read;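 0 = vehicle wells; hits needed this value within 50% of zero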
Active calls of the source: *; i = inactive; ? = inconclusive; / = no result given; + = active, no number; & = joins results of further samples. Some of the compounds tested; the hit share may differ from the screen's.

SMILES | CSC inhib | Rce1 inhib | HIV Env fusion | MT1-MMP act inh | MT1-MMP act inh RFP | PABP FP inh | eIF4H inh | Yeast UUG start
Cn1c(CCNS(=O)(=O)c2ccccc2)nnc1SCc1cccnc1 | -8 | + | 8 | 0 | 3 | 7 | -12 | -5
Cc1oc(-c2ccccc2)cc1C(N)=O | -6 | i | -122 | 10 | 11 | -4 | 0 | -37
Cc1ccc(C(=O)n2nc(-c3ccco3)nc2N)cc1 | -5 | i | / | 4 | 4 | 3 | 1 | -36
C[C@H](CO)N1C[C@H](C)[C@@H](CN(C)S(=O)(=O)c2cccs2)Oc2c(NC(=O)C3CCCCC3)cccc2C1=O | / | / | -12 | 1 | 2 | / | / | 4
N/C(=N\OC(=O)CCC1CCCC1)c1ccccn1 | / | i | -32 | -5 | -4 | -22 | -11 | /
COc1ccc(S(=O)(=O)N2CCCCC2)cc1NC(=O)Cn1cnc2ccccc2c1=O | -7 | / | 10 | 21 | -3 | / | / | 4
CSc1ncnc2c1ncn2CCCN[C@H](C)c1cccc2ccccc12 | / | / | 58* | -1 | 4 | / | / | -13
Cc1n[nH]c(C)c1S(=O)(=O)NCCc1ccc(Cl)cc1 | -5 | i | / | 0 | -1 | -6 | -6 | -20
CCOC(=O)CSc1nc(N)c(C(=O)Nc2ccc(N(C)C)cc2)s1 | -5 | i | -6 | 2 | 7 | 15 | 8 | -26
CN1CCN(c2cc(-c3cccc(C(=O)O)c3)nc3ccnn23)CC1 | / | / | 34 | 2 | 4 | / | / | -7

The closing 2 compounds of the part before open the next one.
SMILES | CSC inhib | Rce1 inhib | HIV Env fusion | MT1-MMP act inh | MT1-MMP act inh RFP | PABP FP inh | eIF4H inh | Yeast UUG start
CCOC(=O)CSc1nc(N)c(C(=O)Nc2ccc(N(C)C)cc2)s1 | -5 | i | -6 | 2 | 7 | 15 | 8 | -26
CN1CCN(c2cc(-c3cccc(C(=O)O)c3)nc3ccnn23)CC1 | / | / | 34 | 2 | 4 | / | / | -7
O=C(Nc1nccs1)c1ccc(-c2ccc(F)cc2)o1 | 16 | i | -184 | 6 | -6 | ? | 24 | /
O=C(c1cc2ccccc2oc1=O)N(c1ccc(Cl)cc1)C1C=CS(=O)(=O)C1 (stereo not drawn) | 3 | i | -1 | -3 | -4 | -12 | -18 | -31
COc1ccc(CCNC(=O)C(=O)c2cn(CC(=O)N3CCOCC3)c3ccccc23)cc1OC | -3 | i | -7 | -1 | 3 | -3 | -14 | -4
Cc1ccc(N/C(N)=N/c2nc(CSc3ccccn3)cc(=O)[nH]2)c(C)c1 | -1 | i | 7 | -1 | -25 | 5 | -1 | /
COc1cccc(CCc2nnc(CCC(=O)NCCC3CCCCO3)o2)c1 (stereo not drawn) | 2 | i | 1 | 2 | 4 | 0 | 2 | -10
Cc1ccc(S(=O)(=O)N(C)c2c(C)ccc(S(=O)(=O)N3CCN(C=O)CC3)c2C)cc1 | 2 | i | 18 | 0 | 3 | -1 | 4 | /
CC(C)C(=O)Nc1ccc2nn(-c3ccccc3)nc2c1 | 10 | i | -218 | 3 | 5 | -7 | 0 | -10
CCc1ccc(NC(=O)Cc2ccc(-n3cccc3)cc2)cc1 | 20 | i | -15 | 0 | -1 | 13 | 9 | -5
Cc1cc(CSc2ccccc2)ccc1NC(=O)c1ccc(C)c([N+](=O)[O-])c1 | -2 | i | -56 | 4 | -5 | -15 | 9 | /
COC(=O)c1cccc(NC(=O)c2cccc([N+](=O)[O-])c2)c1 | -10 | i | -1 | 2 | -1 | 1 | 4 | -19
O=C(NCC(c1ccco1)N1CCc2ccccc21)c1c(F)cccc1F (stereo not drawn) | 1 | i | -2 | 1 | 0 | / | / | -3
COc1cc(NC(=O)CSc2ncnc3scc(-c4ccccc4)c23)c(C(=O)O)cc1OC | 0 | i | 11 | -1 | 6 | 8 | 7 | /
O=S(=O)(c1ccc(Cl)cc1)n1ccc(-c2cccc(OCc3c(F)cccc3Cl)c2)n1 | 4 | i | -7 | -3 | -1 | -14 | -5 | -20
CC(=O)NC1CCCC(NC(C)=O)C1 (stereo not drawn) | / | / | -13 | 1 | 4 | / | / | 0
CC(C)CC(NC(=O)c1ccccc1)C(=O)OCC(=O)Nc1ccc(Br)cn1 (stereo not drawn) | 7 | i | -52 | -1 | 2 | -4 | -9 | -11
Cc1cc(C)c(NC(=O)c2ccccc2CCc2ccccc2)c(C)c1 | 5 | i | 38 | 2 | -2 | 7 | 5 | -15
COc1ccc(-c2[nH]c(-c3ccccc3)nc2SCC(=O)Nc2nccs2)cc1 | -2 | / | -4 | 3 | -6 | 2 | -11 | -2
COc1ccc(C(C)(C)C)cc1S(=O)(=O)n1ccnc1C | -8 | i | 4 | -1 | -1 | -2 | -2 | /
COc1cccc(CNC(C)(C)CO)c1OCc1ccc(Cl)cc1 | -2 | i | -6 | 0 | 3 | -3 | 12 | /
CCN(CC(=O)Nc1ccc(C)c(S(=O)(=O)N2CCOCC2)c1)Cc1ccccc1 | -11 | i | / | 1 | 0 | / | / | -14
O=C(Cc1ccccc1)N1CCCC1c1ccccc1 (stereo not drawn) | / | i | 12 | -1 | 5 | 2 | 7 | -4
Cc1ccc(C2CC(c3ccccc3)=NN2c2ccc(S(N)(=O)=O)cc2)cc1 (stereo not drawn) | / | / | -4 | -6 | 2 | / | / | -2
COc1ccc(C(=O)C2CCCN(Cc3c[nH]c4ccccc34)C2)c(OC)c1 (stereo not drawn) | 1 | i | 18 | -2 | 0 | -6 | -8 | /
O=C(c1ccco1)N1CCN(Cc2ccc(F)cc2)CC1 | -6 | / | 7 | -1 | 0 | 12 | 8 | 6
CCCC(C)NC(=O)Cc1ccc(Br)cc1 (stereo not drawn) | 0 | i | 20 | 4 | 5 | -6 | 3 | /
CC(C)N1C(=O)C2C(c3ccccc3O)NC(C)(C(=O)O)C2C1=O (stereo not drawn) | -6 | i | -20 | 3 | 9 | 7 | 5 | -9
COc1cccc(OC)c1C(=O)Nc1ccccc1C(=O)N1CCCCCC1 | -4 | i | / | -1 | 3 | 9 | -6 | -14
COc1cc(-c2noc(CCC(=O)NC3CCCC3)n2)cc(OC)c1OC | -7 | i | 2 | 4 | 0 | 1 | 6 | -12
C[C@H]1CN([C@@H](C)CO)C(=O)CCCn2nncc2CO[C@@H]1CN(C)Cc1ccccc1C(F)(F)F | / | / | 1 | 16 | -3 | / | / | -1&7
Cc1ccc(C(=O)Nc2ccc(N3CCN(C)CC3)cc2)cc1C | -11 | i | -8 | 1 | 0 | -4 | -5 | -44
CCOC(=O)c1cnc2ccc(OCC)cc2c1N(C)Cc1ccccc1 | / | i | -6 | -8 | -9 | -2 | -18 | -2
CNC(=S)Nc1ccc2[nH]c(=O)[nH]c2c1 | -8 | i | -5 | -1 | 0 | 1 | 8 | 4
CCOC(=O)c1cc(=O)n2nc(-c3ccc(C)cc3)nc2s1 | -10 | i | -79 | 2 | 2 | -1 | -15 | -14
Cc1ccc(OCCCC(=O)Nc2ccc3c(c2)OCCO3)cc1 | -5 | / | -7 | -2 | 5 | / | / | 12
CCOC(=O)CSc1nnc([C@H](C)NC(=O)OC(C)(C)C)o1 | -15 | i | / | 5 | 4 | 3 | -2 | -15
O/N=C1/CCc2nonc2/C1=N/O | -10 | i | / | 4 | 4 | -2 | 6 | -8
COc1ccccc1N(CC(=O)Nc1cccnc1)S(=O)(=O)c1ccccc1 | 1 | i | / | -6 | 2 | -19 | -16 | -12
COc1ccc(/C=N/Nc2nnc(-c3ncc[nH]3)c3ccccc23)cc1 | 18 | i | / | 0 | 2 | -5 | -4 | -8
CC(=O)Nc1ccc(-c2ccnc3c2CC(C(=O)NCc2ccc(N4CCN(C)CC4)cc2)O3)cc1 (stereo not drawn) | / | / | -6 | -1 | 3 | / | / | 7
Cc1cccc(C(=O)NC2=NCCS2)c1 | -9 | i | -11 | 6 | 2 | -1 | -3 | /
O=C(NCCCN1CCCC1=O)c1cc(S(=O)(=O)N2CCOCC2)ccc1Cl | / | i | 15 | -2 | -1 | -1 | 3 | -3
CCCN=C1N(C)C[C@@H]2[C@@H]3C(=O)N(Cc4ccccc4)C(=O)[C@@H]3[C@](Cc3ccccc3)(C(=O)OC)N12 | / | / | 25 | 0 | 1 | / | / | -28
O=C(OC1CCOC1=O)C1CCN(S(=O)(=O)c2ccccc2)CC1 (stereo not drawn) | -12 | / | / | -1 | 2 | / | / | -24
C=C(C)COc1ccc2c(C)c(CCC(=O)N3C[C@H]4C[C@@H](C3)c3cccc(=O)n3C4)c(=O)oc2c1 | -4 | i | / | -3 | -3 | -1 | 2 | -7
O=C1CSC(c2ccc(Cl)cc2)N1Nc1nc(N2CCOCC2)nc(N2CCOCC2)n1 (stereo not drawn) | -2 | i | 6 | 1 | 2 | -6 | -4 | 0
CCOc1ccc(CCNC(=O)c2ccc(CNS(=O)(=O)c3ccccc3)cc2)cc1OCC | 7 | i | 18 | 3 | -8 | -2 | -14 | -6
O=C(N/N=C/c1ccncc1)c1cc(C2CC2)nc2ccccc12 | -1 | i | / | 0 | 2 | -1 | -1 | -12
C#CCOCCOCCOCCNc1nc(N2CCN(C(=O)[C@H](CCCN=C(N)N)n3cc(C(N)[C@@H](C)CC)nn3)CC2)nc(N2CCN(C(=O)[C@H](CCC(=O)O)n3cc([C@@H](N)CO)nn3)CC2)n1 (stereo partly drawn) | / | / | -29 | 0 | 2 | / | / | -8
CC(CCc1ccco1)NC(=O)Cn1ncc2c1-c1ccccc1OC2 (stereo not drawn) | -13 | i | 3 | 1 | 3 | -6 | 7 | -20
C/C(N)=N\S(=O)(=O)c1ccc(Cl)cc1 | -2 | i | -11 | 5 | 8 | 6 | -15 | -19

(more compounds)
SMILES | CSC inhib | Rce1 inhib | HIV Env fusion | MT1-MMP act inh | MT1-MMP act inh RFP | PABP FP inh | eIF4H inh | Yeast UUG start
CC(C)NC(=O)CC(=O)N/N=C/c1ccc(F)cc1 | 2 | i | -40 | -5 | -1 | 5 | 4 | -13
COc1ccc(-c2cn(Cc3ccc4c(c3)C(=O)c3ccccc3C4=O)nn2)cc1 | -15 | i | -13 | 3 | -1 | -4 | 0 | -15
COc1ccc(C(C(=O)Nc2ccc(C(C)C)cc2)N(C)C(=O)CNC(C)=O)cc1 (stereo not drawn) | 13 | / | 3 | 3 | 5 | -9 | 14 | -7
O=C1COc2ccc(NC(=O)c3ccccc3C(=O)O)cc2N1 | -4 | i | -8 | 0 | 2 | -4 | -1 | -15
CN(C)CCNC(=O)c1cccc(-c2cnc3c(NC=O)cc(-c4ccccc4F)cn23)c1 | / | / | -34 | 1 | 1 | / | / | 15
Cn1c(CC2C(=O)Nc3ccc(Br)cc32)nc2ccccc2c1=O (stereo not drawn) | 5 | i | / | -9 | -1 | 4 | -1 | -12
CCOC(=O)c1ccc(NC(=O)c2nc[nH]c2C(=O)NCCCNC(=O)c2[nH]cnc2C(=O)Nc2ccc(C(=O)OCC)cc2)cc1 | -9 | / | 14 | -2 | 2 | / | / | -2
Clc1ccccc1NN(Cc1ccncc1)c1ccccc1Cl | / | / | 4 | 0 | -3 | / | / | -30
COc1ccc(S(=O)(=O)N2CCOCC2)cc1NC(=O)CCc1cc(OC)c(OC)c(OC)c1 | 8 | / | -7 | -3 | 5 | / | / | -6
